Screens as filed in PubChem.
MLL AF4-AF9 inh: blocks AF4 peptide binding to human AF9. P42568. AID 651704. inhibition, % at 10 µM. 350,000 tested, 0.47% active. AlphaScreen, biotin-AF4 peptide binding to FLAG-AF9;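 active means every replicate reaching a set inhibition limit, whatever the replicate mean, cut at about 25% in these data; inconclusive means mean inhibition reaches that limit but some replicates miss it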;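 further: 0% = plate neutral control median and 100% = total signal loss; the record names both 10 and 1 µM as test concentration; the first replicate is given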
Ecoli growth: E. coli growth inhibition | 330,000 tested, 0.21% active | Escherichia coli growth, OD600, 23 h; hits give low values | OD600 absorbance (no concentration beside the values);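 active means OD600 absorbance below the run mean of sample wells minus 3.6 SD, in any replicate, cut at about 0.56 in these data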;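 further: stock transfer was 300 nL into about 60 µL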
Vif A3G: inhibitors of Vif binding to APOBEC3G peptide, primary screen, biochemical, TR-FRET, GST-Vif 1-94, biotin-A3G peptide, dose response retest (AID 1117319); TR-FRET GST-Vif / biotin-A3G peptide binding; higher % means a stronger effect; test concentration not given here; strong numbers were not always called active; 260,000 tested, 0.57% active; inhibition, %; hits with a dose series show IC50 in µM;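 active means above the screen mean plus three standard deviations and confirmed in dose response; inconclusive means results disagree or hit not tested in dose response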;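 further: Vif residues 1-94 fused to GST binding biotinylated APOBEC3G peptide 110-148; 0% = full assay without inhibitor and 100% = GST in place of GST-Vif; retest series ran down from 100 µM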
FGF22 binding: FGF22 (human) thermal shift binding | 340,000 tested, 1.5% active | recombinant FGF22 thermal shift, SYPRO orange fluorescence; percent of sucrose octasulfate shift, DMSO zero | Q9HCT0 | calls only at 9.99 µM;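 active means melting point raised past a set limit in the mean and every replicate; inconclusive means no clear call; three in four hits are not shown here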
Target sequence (Q9HCT0 whole entry, looked up): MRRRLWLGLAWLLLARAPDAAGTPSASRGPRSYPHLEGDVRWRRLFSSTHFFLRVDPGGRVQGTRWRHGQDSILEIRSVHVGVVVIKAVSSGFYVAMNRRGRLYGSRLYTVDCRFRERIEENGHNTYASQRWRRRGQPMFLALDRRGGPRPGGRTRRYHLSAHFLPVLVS
UCH37 DUB inh: human UCH37 deubiquitinating enzyme inhibition; AID 588478; inhibition, % (no concentration beside the values); 330,000 tested, 0.33% active; purified proteasome/UCH37, Ub-AMC cleavage fluorescence; Q9Y5K5;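 active means mean of two replicates above 20%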;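 further: 0% = compound-free wells with enzyme and 100% = wells lacking proteasome; stock transfer was 100 nL into about 20 µL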
Target sequence (Q9Y5K5 whole entry, looked up): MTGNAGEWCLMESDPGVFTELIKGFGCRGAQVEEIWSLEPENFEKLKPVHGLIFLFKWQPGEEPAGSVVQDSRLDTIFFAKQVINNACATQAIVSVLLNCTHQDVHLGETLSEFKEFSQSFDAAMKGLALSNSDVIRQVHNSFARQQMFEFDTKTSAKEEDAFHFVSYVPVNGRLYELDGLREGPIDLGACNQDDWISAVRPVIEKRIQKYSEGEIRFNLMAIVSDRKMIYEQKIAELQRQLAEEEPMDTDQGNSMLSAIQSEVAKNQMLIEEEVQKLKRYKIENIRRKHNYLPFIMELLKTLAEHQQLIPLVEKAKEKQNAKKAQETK
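Material: Human UCH37 enzyme supplied as purified proteasome complex | Schedule: 30 min preincubation with enzyme, 25 min cleavage at room temperature | Detection: AMC fluorescence 355/460 nm | Measure: % inhibition of Ub-AMC cleavage fluorescence | Controls: Wells without proteasome as full block, compound-free enzyme plus substrate as uninhibited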
RanGTP-Impb inh: inhibitors of RanGTP-importin-beta interaction, primary screen, biochemical, FRET, CFP-Ran, YFP-importin-beta, homogeneous. 300,000 tested, 1.1% active. inhibition, % (concentration not given with the values). cell-free CFP-Ran/YFP-importin-beta FRET ratio;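 active means most replicates above 15%; inconclusive means exactly half above 15%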;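 further: 0% = DMSO wells and 100% = Ran loaded with GDP instead of GTP; wells of about 40 µL received 100 nL stock; the first replicate is given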
HNF4A DNA FP: change in binding of human HNF4 alpha to DNA | P41235 | activity change, % at 10 µM | 360,000 tested, 0.3% active | HNF4a-FITC DNA binding, fluorescence polarization, 1 h; in the data active means activity change above about 30%, passing the limit was not always enough;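 further: controls were the assay level and a saturating level of protein; the project sought stronger binding though the title names inhibitors; some compounds called inactive have numbers as strong as hits; positive values seem to mean higher polarization but the record does not say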
Target sequence (P41235 whole entry, looked up): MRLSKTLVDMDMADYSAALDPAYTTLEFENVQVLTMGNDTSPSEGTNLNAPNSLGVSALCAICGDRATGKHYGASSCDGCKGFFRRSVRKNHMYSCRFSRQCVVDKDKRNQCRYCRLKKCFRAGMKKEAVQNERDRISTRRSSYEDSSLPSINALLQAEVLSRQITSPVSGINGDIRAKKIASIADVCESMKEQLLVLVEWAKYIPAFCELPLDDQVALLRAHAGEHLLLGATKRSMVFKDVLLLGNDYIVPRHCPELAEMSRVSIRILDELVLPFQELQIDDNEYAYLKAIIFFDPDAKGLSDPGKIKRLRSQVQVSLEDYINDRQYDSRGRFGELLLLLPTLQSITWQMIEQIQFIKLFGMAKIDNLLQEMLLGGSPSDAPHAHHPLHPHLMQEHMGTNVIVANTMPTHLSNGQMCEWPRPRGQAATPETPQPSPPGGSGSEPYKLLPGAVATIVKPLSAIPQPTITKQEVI
An asterisk follows results filed as active; i = inactive; ? = inconclusive; / = not tested or not shown; & = joins results of further samples. Some of the compounds tested; rates above refer to the full screens.

SMILES	MLL AF4-AF9 inh	Ecoli growth	Vif A3G	FGF22 binding	UCH37 DUB inh	RanGTP-Impb inh	HNF4A DNA FP
CS(=O)(=O)N(Cc1ccccc1)c1ccc(C(=O)NCCSc2ccccn2)cc1	-2.4	0.703	/	i	2.1	3.1	-2.8
CC1(C)c2[nH]c3ccccc3c2C[C@@H]2C(=O)N(Cc3ccccc3F)C(=O)N21	8.7	/	/	i	-1.3	1.9	0.6
Cc1nn(-c2ccccc2)nc1C(=O)NNC(=O)c1ccc(C(F)(F)F)cc1	-0.2	0.629	23.8%	i	5.6	0.5	2.5
O=C(Nc1ccc(S(=O)(=O)N2CCCCCC2)cc1)c1[nH]ncc1[N+](=O)[O-]	1.6	/	/	i	/	-0.4	-0.4
COc1ccc(NC(=O)CCCc2ccccc2)cc1OC	5.1	0.677	-9.8%	i	2.8	-0.5	1.2
CN1C(=O)c2cccc3c(S(=O)(=O)NCCc4ccccc4)ccc1c23	-2.5	0.698	1.6%	i	-114.2	8.2	-1.6
Nc1ccc(NC(=S)Nc2ccccc2)cc1	1.6	0.685	14.5%	i	3.6	-5.2	0.9
CC(C)[C@@H](CO)N(C)S(=O)(=O)c1ccccc1Br	0.1	0.684	-1.1%	i	2.9	/	-0.8
O=C(CNC(=O)c1ccc(Br)o1)NCc1ccc2c(c1)OCO2	/	0.681	0.9%	/	5.3	-1.0	0.6
CCn1c(SCC(=O)O)nnc1-c1cc2c(C)nn(-c3ccccc3)c2s1	18.3	0.672	?	i	2.2	-2.2	2.2
CCCCN1C(=O)C(CC(=O)NCC2CCCCC2)CC(C(=O)N(C)C)=C1C (stereo not given)	-6.0	/	-2.4%	i	/	/	0.3
O=C(CCC(=O)N1CCN(C2CCCCC2)CC1)Nc1nnc(C(F)(F)F)s1	/	0.723	-5.2%	/	4.0	-2.0	0.2
COc1cc(/C=N/NC(=O)c2ccncc2)ccc1OC(=O)c1cccc(F)c1	0.3	/	/	i	/	-1.6	1.7
C[C@H]1CN([C@@H](C)CO)C(=O)c2cc(C#Cc3cccnc3)cnc2O[C@H]1CN(C)Cc1ccc(F)cc1	-2.3&-2.2&0.5	/	/	i	/	/	1.5
O=C(Cc1ccc(-n2c(=O)[nH]c3ccccc3c2=O)cc1)N1CCN(c2ccccc2)CC1	/	0.728	-8.1%	/	0.3	-2.8	2.4
CNC(=S)Nc1ccc(C23CC4CC(CC(C4)C2)C3)cc1	/	0.646	19.0%	/	2.3	0.0	-0.7
CCOc1ccc(CCNC(=O)c2cn(C)c3ccc(S(=O)(=O)N4CCOCC4)cc3c2=O)cc1OCC	3.2	0.689	1.6%	i	6.5	-2.6	2.6
COc1cccc(/C=C/C(=O)OCC(=O)c2ccccc2)c1OC	-0.8	0.713	/	i	-10.8	/	3.7
CC1CCCCN1CCNC(=O)c1ccc2c(=O)n(CCc3ccccc3)c(=O)[nH]c2c1 (stereo not given)	/	0.65	7.9%	/	-17.7	-0.3	5.4
COc1ccccc1CN1CC(C(=O)NCc2nccn2C)CCC1=O (stereo not given)	-4.7	0.656	/	i	-1.1	1.8	4.5
COc1ccc(O)c(/C=N/NC(=O)c2c(C)nnn2-c2nonc2N)c1	-0.8	/	2.4%	i	/	-5.9	41.4*
Cc1cccc(-c2cc(N3CCCN(C)CC3)n3nccc3n2)c1	30.0*	/	/	i	/	/	11.7
COc1ccccc1CN1CC(C(=O)NCc2cc(C)on2)CCC1=O (stereo not given)	1.1	0.714	8.5%	i	-0.2	0.0	-2.2
Nc1ccccc1C(=O)N1O[C@@H]2C=C[C@H]1CC2	1.0	0.729	-4.5%	i	-0.1	/	-1.3
Cc1c(C)c2ccc(OCC(=O)Nc3ccc(N4CCC(C)CC4)cc3)cc2oc1=O	-0.8	0.711	/	i	-13.9	0.4	0.0
CCCCCCCCNc1nc(Cl)nc(NCc2ccco2)n1	/	0.717	-7.6%	/	1.4	2.1	-1.8
CCNC(=O)COC(=O)C1CCC(=O)N(c2ccc(OC)cc2)C1c1ccc(OC)cc1 (stereo not given)	/	0.7	2.8%	/	-1.4	2.3	-1.3
COc1ccccc1NC(=O)Cn1nc(C(F)(F)F)c2c1CCCC2	/	0.701	-1.2%	/	1.8	?	1.7
COc1ccc(O)c(/C=N\NC(=O)CCn2nnc3ccccc32)c1	/	/	3.9%	/	/	-6.6	-5.5
CCOC(=O)NC(=O)c1cn(CCNCCO)c(=O)[nH]c1=O	2.6	0.689	9.9%	i	2.5	2.8	0.5
c1ccc(-c2ccccc2OCCOCCN2CCOCC2)cc1	9.5	0.657	/	i	4.6	-2.0	-3.3
O=C(Nc1nonc1NC(=O)c1cccs1)c1cccs1	-2.0	0.557	/	i	2.0	21.1*	-3.5
CCn1c2ccccc2c2cc(NC(=O)CSc3nnc(-c4cccc(C)c4)o3)ccc21	/	0.75	-5.1%	/	-2.1	-2.5	4.0
CCn1nc(C(=O)Nc2cccc(C(F)(F)F)c2)c(Cl)c1Cl	/	0.711	-1.9%	/	4.0	-2.1	3.1
CCc1nc2c(OCCOc3ccc(F)cc3)cccn2c1N(C)C(=O)c1ccccc1F	1.4	/	/	i	/	/	-4.7
Cc1cc(-c2ccco2)n(CC(=O)NCCCc2ccccc2)n1	2.8	0.73	-2.3%	i	7.2	2.9	-5.8
CCOC1OC(=O)C(Cl)=C1Nc1ccc(C)cc1C (stereo not given)	-2.1	0.626	5.3%	i	3.3	12.6	-4.2
COc1cccc(C(NC(C)=O)c2nc(/C=C/c3ccccc3)cs2)c1 (stereo not given)	3.4	/	/	i	/	/	-1.6
CCCCNc1ccc2c3c(cccc13)C(=O)N(CCCC)C2=O	/	0.637	27.5%	i	0.6	-451.7	-109.9
O=C(CNC(=O)c1ccncc1)N/N=C/c1ccc(Br)cc1	1.7	/	13.0%	i	/	-3.9	2.7
CC1=NN(C(=O)CCCc2ccccc2)C(O)(C(F)(F)F)C1 (stereo not given)	-3.4	0.673	/	i	-182.5	-1.0	-3.0
CCOc1ccc2oc(C(=O)N3CCCN(C)CC3)c(C)c2c1	0.4	0.704	/	i	-3.2	/	2.6
Cc1cc(NC(=O)CCC(=O)N(Cc2ccco2)C2(C(=O)NC3CCCC3)CCC(C)CC2)no1 (stereo not given)	2.7	0.706	-4.8%	i	3.6	-4.0	2.7
Cc1cc(NC(=O)CCC(=O)N(Cc2ccco2)C2(C(=O)NC3CCCCC3)CCCC(C)C2)no1 (stereo not given)	4.4	0.675	/	i	-0.1	4.5	-4.2
COc1cccc(-c2nc(NC3CCCC3)c3ccccc3n2)c1O	-0.4	0.681	-3.4%	i	1.0	-1.3	-1.9
Cc1ccc(-n2ncc3c2CC(C)(C)CC3NC(=O)CN2CCCC2=O)cc1 (stereo not given)	0.4	0.661	5.2%	i	-0.6	0.2	-2.6
Cc1ccc(-c2nc(N)s[n+]2-c2ccccc2)cc1	3.9	0.686	/	i	2.0	5.8	-5.5
O=C(Cc1ccc(Cl)cc1)Nc1ncc([N+](=O)[O-])s1	-2.2	0.644	/	/	0.6	0.5	2.5
O=C(NCc1ccco1)c1ccc([N+](=O)[O-])cc1Cl	-1.7	0.665	/	i	0.5	-2.8	4.0
CCc1nnc(NC(=O)C2Cc3ccccc3CN2S(=O)(=O)CC)s1 (stereo not given)	-6.3	0.732	-3.4%	i	1.8	-1.8	4.6

Next section:
SMILES	MLL AF4-AF9 inh	Ecoli growth	Vif A3G	FGF22 binding	UCH37 DUB inh	RanGTP-Impb inh	HNF4A DNA FP
COc1ccc(C(=O)CC(=O)C(=O)Nc2cccc(C(C)=O)c2)cc1	-1.2	0.693	-6.6%	i	11.9	-6.2	3.5
COc1ccc(/C=C/C(=O)NCC(=O)n2nc(C)cc2C)cc1	-0.4	0.66	12.4%	i	5.2	-2.6	0.5
COc1ccc(/C=C2\SC(=S)N(CCCC(=O)NNC(=O)c3ccccc3O)C2=O)cc1	0.0	/	6.8%	i	/	0.9	6.0
COc1c(C)cc(Br)cc1C(=O)Nc1cccc(NC(=O)c2ccco2)c1	9.1	0.643	-2.8%&-2.5%	i	3.9	-0.1	-3.7
O=C(Nc1ccc2oc(-c3ccc4ccccc4c3)nc2c1)c1ccc2c(c1)OCCO2	/	0.725	-20.9%&18.3%	/	-207.1	4.9	1.4
CCCCNC(=O)CN(c1cccc(Br)c1)S(C)(=O)=O	/	0.707	5.8%	/	0.8	-1.3	-0.1
NC(=O)C(=O)NCCCN1CCOCC1	0.8	0.705	2.7%	i	4.0	-0.5	4.3
Cc1ccc(S(=O)(=O)N2CCC(C(=O)OCC(=O)N3CC(=O)Nc4ccccc43)CC2)cc1	/	0.716	1.1%&-0.2%	/	2.2	6.1	4.0
COc1ccc(C(=O)N2CCN(c3ccccc3)CC2)cc1S(=O)(=O)NC1CC1	1.2	0.702	1.5%	i	0.4	/	1.7
Cc1ccccc1OCC(=O)NNC(=S)NC(=O)c1ccco1	/	0.687	1.9%	/	4.5	-0.3	5.1

Some of the entries so far, with values under each structure.
Results follow in this order: MLL AF4-AF9 inh, Ecoli growth, Vif A3G, FGF22 binding, UCH37 DUB inh, RanGTP-Impb inh, HNF4A DNA FP
- CCCCNC(=O)CN(c1cccc(Br)c1)S(C)(=O)=O
  /, 0.707, 5.8%, /, 0.8, -1.3, -0.1
- COc1ccc(/C=C/C(=O)NCC(=O)n2nc(C)cc2C)cc1
  -0.4, 0.66, 12.4%, i, 5.2, -2.6, 0.5

Carrying on.
SMILES	MLL AF4-AF9 inh	Ecoli growth	Vif A3G	FGF22 binding	UCH37 DUB inh	RanGTP-Impb inh	HNF4A DNA FP
CCN(CC)S(=O)(=O)c1ccc(/C=C/C(=O)O)cc1	-0.9	0.65	0.0%	i	3.6	1.3	-2.9
O=C(c1ccc(C(F)(F)F)cc1)N1CCC(=O)N(C(COCc2ccc(Cl)cc2)Cc2ccccc2)CC1 (stereo not given)	-13.5	0.75	28.1%	i	5.6	8.0	-3.0
CCCNC(=O)COc1coc(CN2CCN(c3ccc(F)cc3)CC2)cc1=O	-2.2	0.681	/	i	1.6	2.8	18.5
Cc1cccc(N2CCN(C(=O)C3CCN(c4ncnc5c4nc4n5CCCCC4)CC3)CC2)c1C	3.3	0.708	/	i	8.3	1.1	-1.1
O=C(CC1c2ccccc2Oc2ccccc21)N1CCN(c2ccccn2)CC1	11.4	0.678	0.9%	i	-1.2	2.0	2.2
CN(CC(O)COc1ccccc1F)C1CCCCC1 (stereo not given)	-2.9	0.664	-1.3%	/	3.6	-0.6	-2.0
O=C(Cn1ncc2c3ccccc3n(Cc3ccccc3)c2c1=O)NCCCN1CCOCC1	0.0	0.672	/	i	-3.1	2.5	3.5
CC(Oc1ccc(Cl)cc1Cl)C(=O)Nn1cnnc1 (stereo not given)	/	0.678	5.2%	/	2.3	-1.1	0.8
COc1cccc(C(=O)Nc2ccc(NC(=O)C3CC=CCC3C(=O)O)cc2)c1 (stereo not given)	-4.9	/	/	i	/	/	3.4
O=C(COC(=O)c1ccc[n+]([O-])c1)Nc1ccc(Cl)cc1[N+](=O)[O-]	2.1	0.68	-0.6%	i	5.3	/	-3.9
O=C(c1ccccc1)N1CCN(c2ccc(Cl)cc2)CC1	5.0	0.699	70.9%	i	0.6	1.9	1.4
COc1ccc(-c2c(C#Cc3ccsc3)c3cc(-c4ccc5c(c4)OCCO5)ccc3n2C)cc1	-2.5	0.692	/	i	-49.9	/	3.8
CCNC(=O)CCS(=O)(=O)c1ccc2ccccc2c1	/	0.704	-6.8%	/	3.1	0.9	-6.4
CCC(C)Oc1ccc(C(=O)Nc2ccc(CN3CCOCC3)cc2)cc1 (stereo not given)	6.7	0.682	/	i	3.1	3.1	-2.2
Cc1noc(C)c1-c1ccc(C(=O)NCc2ccccc2)c2occc12	0.4	/	/	i	/	/	-1.7
NS(=O)(=O)c1ccc(CNC(=O)CCS(=O)(=O)Cc2ccccc2)cc1	-2.1	0.708	1.2%	i	3.2	0.0	3.3
